A647 fluor: compound autofluorescence in A647 spectral region; AID 592; Compound fluorescence, A647 channel (570/671 nm), Tris buffer; 59,000 tested, under 10 active; max dye-equivalent concentration, M; active means above 1 µM dye equivalent; inconclusive means 0.1 to 1 µM; inactive means 0.1 µM or less;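 further: values scaled relative to a standard on each plate; highest value over a series up to 38 µM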
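Buffer was dispensed, compounds and Alexa 647 standards were pin-transferred, and plates sat 15 min at room temperature. Intensity at 570/671 nm was then converted to dye-equivalent concentration using the plate's A647 standard curve.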
AID923: qHTS Assay for Allosteric/Competitive Inhibitors of Caspase-1: Spectroscopic Profiling in AFC Spectral Region | AID 923, 2007 | Potency, µM (series often up to 57.5 µM), without a hit: top-dose fluorescence increase, hits mostly activators | compound fluorescence, AFC spectral region (405/520 nm); almost no hit is shown here | 1.1% of 75,000 active; active means well fitted activation curve with a large enough effect; inconclusive means small, poorly fitted or top-dose-only effect;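 further: potency means the concentration at half of the fitted maximal effect; 0% is about no effect; scaled to a free AFC standard on each plate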
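Compound autofluorescence profiled at 405 nm ex/520 nm em during kinetic caspase 1 run (50 nM enzyme, 5 uM Ac-WEHD-AFC, HEPES pH 7.5, 10 mM DTT). Titration up to 57 uM; baseline from regression intercept, normalized to AFC standard curve.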
TSHR agonist: agonists of human thyroid stimulating hormone receptor. 0.48% of 73,000 active. Potency, µM (doses to about 57.1 µM), for the others: at the highest dose activation, usual class: activators. HEK293-CNG-TSHR cells (CNG channel as cAMP sensor), membrane potential dye, cAMP. AID 926. P16473; active = well fitted activation curve of enough size with the parental cells flat; inconclusive = any curve in the parental cells; inactive = parental cells flat and receptor cells flat or falling; further: potency means the concentration at half of the fitted maximal effect; % of control where 0% means no effect; weak receptor curves with flat parental cells got no call and are not listed
Target sequence (P16473 whole entry, looked up): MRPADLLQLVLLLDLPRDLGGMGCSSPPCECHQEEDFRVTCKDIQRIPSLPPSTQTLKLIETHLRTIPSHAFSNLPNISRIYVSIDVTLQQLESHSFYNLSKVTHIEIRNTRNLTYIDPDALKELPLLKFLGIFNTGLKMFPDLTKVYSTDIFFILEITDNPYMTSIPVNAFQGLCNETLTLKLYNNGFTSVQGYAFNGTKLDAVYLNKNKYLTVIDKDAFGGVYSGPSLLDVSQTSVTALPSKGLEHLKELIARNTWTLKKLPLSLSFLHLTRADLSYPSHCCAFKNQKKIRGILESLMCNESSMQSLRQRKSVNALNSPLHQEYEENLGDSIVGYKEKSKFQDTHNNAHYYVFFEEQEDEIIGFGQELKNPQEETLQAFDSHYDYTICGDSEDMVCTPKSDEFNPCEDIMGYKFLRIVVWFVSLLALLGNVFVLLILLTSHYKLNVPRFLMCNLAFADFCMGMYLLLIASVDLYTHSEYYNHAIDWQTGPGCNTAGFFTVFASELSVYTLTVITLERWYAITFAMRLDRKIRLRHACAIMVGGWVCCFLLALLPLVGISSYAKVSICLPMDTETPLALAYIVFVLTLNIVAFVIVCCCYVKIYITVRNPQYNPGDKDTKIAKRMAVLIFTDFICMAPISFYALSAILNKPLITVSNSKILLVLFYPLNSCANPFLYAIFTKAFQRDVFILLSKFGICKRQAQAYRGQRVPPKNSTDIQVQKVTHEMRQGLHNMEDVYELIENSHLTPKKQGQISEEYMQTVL
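HEK 293 cells stably expressing TSHR and a cAMP-gated CNG channel; parental CNG-only cells as counterscreen. Cells preloaded 60 min with membrane potential dye plus 100 uM RO 20-1724, then compound 30 min; fluorescence read at 590 nm.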
A488 fluor: A488 region autofluorescence. compound autofluorescence, A488 spectral region, dye equivalency; active compounds read high. max dye equivalency, M. 0.1% of 59,000 active. AID 591; active = above 10 nM dye equivalent; inconclusive = 1 to 10 nM; inactive = 1 nM or less; about half of its hits are not listed in these tables;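 further: highest value over a series up to 38 µM; compound alone in buffer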
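Spectroscopic profiling in the A488 region: compounds in pH 8.0 Tris (100 mM), 15 min RT, CCD imaging with 480 nm excitation and 540 nm emission; responses normalized against A488 dye standards.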
Resorufin autofl: compounds fluorescent in resorufin spectral region. max dye-equivalent concentration, M. Compound fluorescence, resorufin region 547/598 nm, buffer; active compounds read high. 0.04% of 59,000 active; active = above 10 nM dye equivalent; inconclusive = 1 to 10 nM; inactive = 1 nM or less; a few of its hits are not listed in these tables; further: highest value over a series up to 38 µM
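Dye-equivalent concentration values derive from comparing each well's 547/598 nm fluorescence against resorufin standards included on every plate. Incubation was 15 min at room temperature in 100 mM Tris, pH 8.0.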
* = called active by the depositor; i = inactive; ? = inconclusive; nt = no result given; [ ] = another dose, or the depositor's remark. These rows are one share of the data. The share of hits here may be higher or lower than overall.

SMILES | A647 fluor | AID923 | TSHR agonist | A488 fluor | Resorufin autofl
COc1ccc(-c2nnc3ccc(SC(C(C)=O)C(C)=O)nn23)cc1OC | 1e-09 | -0.9% | 1%[11.4 µM] | i | i
c1cnc(N2CC[N+]3(CCCC3)CC2)nc1 | 1e-09 | -0.3% | -2% | i | i
O=C(O)c1ccc(S(=O)(=O)NC2CCCc3ccccc32)cc1 (configuration not stated) | 3.3e-08 | -0.3% | 0%[11.4 µM] | i | i
COc1ccc(NC(=O)CCOc2ccccc2)c(OC)c1 | 2.3e-09 | -0.4% | 0% | i | i
COC(=O)CN(c1cc(OC)ccc1OC)S(=O)(=O)c1ccc(OC)c(OC)c1 | 1.5e-08 | nt | nt | i | i
COc1ccc2nc(NC3=NCN(CC4CCCO4)CN3)nc(C)c2c1 (configuration not stated) | 1.7e-08 | -0.3% | 6% | i | i
COCCCNC(=O)C1CCN(C(=O)c2cc3sccc3n2Cc2ccc(F)cc2)CC1 | 1e-09 | -1.8% | 9% | i | i
Cc1ccc2[nH]c(=O)c(C(c3nnnn3CC3CCCO3)N3CCOCC3)cc2c1 (configuration not stated) | 2.7e-09 | 0.6% | 1% | i | i
Cn1c(=O)c2c(nc(SCC(=O)Nc3ccccc3)n2C)n(C)c1=O | nt | 1.3% | 1% | nt | nt
CCOc1cc(C2c3c(n[nH]c3C)C(=O)N2c2ccc(C)cc2)ccc1O (configuration not stated) | 1.4e-08 | -1.0% | 15% | i | i
CCc1ccc(-c2nc(CS(=O)CC(=O)NCc3cccnc3)c(C)o2)cc1 (configuration not stated) | 4e-08 | 1.6% | -5% | i | i
CCOC(=O)c1c(C)oc2cc(Br)c(OC(C)C(=O)OCC)cc12 (configuration not stated) | nt | -0.3% | ? | nt | nt
Cc1cc(OCc2nc(N)nc(N)c2-c2ccc(Cl)c(Cl)c2)ccc1[N+](=O)[O-] | 9.3e-09 | -0.9%[11.5 µM] | 6%[11.4 µM] | i | i
Cn1c(SCC(=O)N2CCN(c3cccc(Cl)c3)CC2)nnc1-c1ccncc1 | 2.7e-08 | 0.0% | 20% | i | i
Cc1[nH]nc2c1C(C1CC=CCC1)C(C#N)=C(N)O2 (configuration not stated) | nt | 0.5% | 0% | nt | nt
CCc1ccc(-c2cn3nc(C)c(C)nc3n2)cc1 | 3.8e-09 | nt | nt | i | i
CC1=C(C(=O)NCc2ccccc2)C(c2cccs2)n2ncnc2N1 (configuration not stated) | 3e-08 | 4.3% | 10% | i | i
O=C(CSc1nnnn1-c1ccccc1)Nc1nc(-c2ccccc2)ns1 | 1e-09 | 1.0% | ? | i | i
Cc1nc(CCNS(=O)(=O)c2cccs2)cs1 | 4.2e-09 | 1.4% | -4%[11.4 µM] | i | i
O=S(=O)(Cc1ccccc1)N1CCCC(c2nc(-c3ccc(F)cc3)no2)C1 (configuration not stated) | 8.7e-09 | -1.2% | ? | i | i
O=C1c2ccccc2NC(c2ccco2)N1O (configuration not stated) | nt | 0.2% | -8% | nt | nt
O=C(C1CCCN(Cc2ccccc2Br)C1)N1CCCCC1 (configuration not stated) | 1.2e-09 | -0.1% | ? | i | i
Cc1ccc2c(c1)[nH]c1c(=O)n(CCN3CCNCC3)cnc12 | 2.5e-09 | 1.3% | 1% | i | i
Cc1sc(NC(=O)CSc2nnc(-c3ccccc3)o2)c(C#N)c1C | 3.6e-08 | 1.2% | 22% | i | i
COCCn1c(=NC(=O)CSC(C)=O)sc2cc(F)ccc21 | 3.1e-08 | 1.6% | -17% | i | i
COc1ccc(OC)c(-n2cc3c(=O)n(C)c(=O)n(C)c3c2)c1 | 1e-09 | 1.4% | 14% | i | i
COc1ccc2oc(C)c(C(=O)Cn3ccnc3)c2c1 | 1e-09 | 0.6% | 8%[11.4 µM] | i | i
COCCn1c(=O)[nH]c2cc(C(=O)NCCc3ccc(OC)c(OC)c3)ccc2c1=O | 1.8e-09 | 1.6% | -3% | i | i
Cc1ccc(C2C(C#N)=C(N)SC(N)=C2C#N)o1 | nt | 8.9% | 11% | nt | nt
CC(C)OC(=O)CSc1nc2ncccc2[nH]1 | 3.7e-09 | -0.3% | 3% | i | i
COc1cc(CNCc2ccc(OC)c(OC)c2OC)cc(OC)c1 | 1e-09 | -0.9% | nt | i | i
CCCc1cc(C(=O)Nc2ccccc2C(=O)OC)no1 | nt | -0.3% | 24% | nt | nt
O=C(CSc1nncs1)NCc1ccc2c(c1)OCO2 | 1e-09 | 0.8% | 0% | i | i
CN1CCC2(CC1)Nc1nc(SCc3ccc(Cl)cc3)nn1C1=C2CN(C)CC1 | 2.3e-08 | 7.8% | -3%[11.4 µM] | i | i
CC1(C)Cc2c(c(=S)nc(-c3ccccc3)n2CCCN2CCOCC2)CO1 | 7e-09 | 1.8% | -5% | i | i
COc1ccc(CCn2c(C)cc3c(c2=O)C(c2ccc4c(c2)OCO4)C(C#N)=C(N)O3)cc1OC (configuration not stated) | 3e-08 | nt | nt | i | i
Cc1ccccc1Cn1c(=O)c2c(nc3n2CCCN3Cc2ccccc2)n(C)c1=O | 3.2e-08 | 0.5% | -22% | i | i
O=C1C=C(NCc2ccncc2)CC(c2ccccc2)C1 (configuration not stated) | nt | -0.5% | 2% | nt | nt
Cc1ccc(OCc2nnc(SCc3nc4ccccc4[nH]3)n2Cc2ccco2)cc1 | 5.2e-09 | 8.0% | ? | i | i
O=C(O)C1CSC(c2ccccc2)N1C(=O)c1ccco1 (configuration not stated) | 2.2e-08 | 0.8% | -1% | i | i
CCN(CC)c1cc(C)c2cc(NC(=O)CNC(C)=O)ccc2n1 | 2.9e-08 | 0.9% | 1% | i | i
CCOc1ccc(CNC(=O)NS(=O)(=O)c2ccc(OC)cc2)cc1 | 5.5e-09 | 1.3% | 6% | i | i
Cc1ccc(C(C(=O)NC2CCCC2)N(Cc2cccs2)C(=O)CNC(=O)c2cccs2)o1 (configuration not stated) | 1.7e-08 | -0.6% | 26% | i | i
CN(Cc1ccco1)c1ncncc1-c1cccc(NS(C)(=O)=O)c1 | 2.5e-08 | 1.0% | ? | i | i
COc1ccccc1-c1cncnc1Nc1ccccc1 | 8e-09 | 0.4% | 16% | i | i
CC(=O)Nc1cccc(Oc2cc(C#N)c(C#N)cc2N2CCOCC2)c1 | 1.2e-09 | 2.0% | 3% | i | i
Cn1c(SCc2ccccc2F)nnc1-c1cnccn1 | 7e-09 | 0.0% | 2% | i | i
CC(C)c1ccc2oc(=O)cc(CN3CCN(c4ccc(F)cc4)CC3)c2c1 | 1e-09 | 0.4% | 24% | i | i
COc1ccc(OCCSc2ncnc3nc[nH]c23)cc1 | nt | 2.2% | 3% | nt | nt
O=C(CCCn1c(SCC(=O)NCC2CCCO2)nc2ccccc2c1=O)NCC1CCCO1 (configuration not stated) | 9.2e-09 | -0.5% | -3%[11.4 µM] | i | i
Cc1sc2nc(CN3CCN(S(=O)(=O)c4cccc5nonc45)CC3)[nH]c(=O)c2c1C | 9.5e-09 | 1.0% | -9% | i | i
CCN(CCNC(=O)C1CCCN(Cc2nc(-c3ccc(OC)cc3)oc2C)C1)c1ccccc1 (configuration not stated) | 2.8e-09 | -0.6% | 1%[11.4 µM] | i | i
C=CCSc1nc(C)c(CC=C)c(=O)[nH]1 | 1.7e-09 | nt | nt | i | i
COc1ccc(S(=O)(=O)N(CC(=O)NC2CC2)c2ccc(C)cc2)cc1OC | 3.5e-08 | -1.1% | -1% | i | i
COc1ccccc1N1CCN(C(=O)COc2ccc(Cl)cc2)CC1 | 4.4e-08 | -3.3% | -10% | i | i
Cc1ccccc1CN1CCN(CC(=O)NCCCN2CCN(c3ccc(F)cc3)CC2)C1=O | 1e-09 | -0.9% | 23% | i | i
CCCCn1c(N2CCC(Cc3ccccc3)CC2)nc2c1c(=O)[nH]c(=O)n2C | 2.1e-08 | -1.4% | 12% | i | i
Clc1ccc2c(NCCNc3ccnc4cc(Cl)ccc34)ccnc2c1 | 1.5e-08 | -1.6%[11.5 µM] | -4%[11.4 µM] | i | i
COC(=O)Cc1c(C)c2ccc(OCC(C)=O)c(C)c2oc1=O | 2.4e-08 | -1.0% | 9% | i | i
CC(=O)OCCOc1nc(N(C)C)nc(N(C)C)n1 | 1.5e-09 | 0.0% | 4% | i | i
Remaining list, next part.
SMILES | A647 fluor | AID923 | TSHR agonist | A488 fluor | Resorufin autofl
CCOCCCNC(=O)c1cccs1 | nt | -0.9% | -6%[11.4 µM] | nt | nt
CCOC(=O)N1CCN(C(=O)c2ccc3c(SCC(=O)O)c4c(nc3c2)CCCC4)CC1 | nt | 0.9% | 1% | nt | nt
CCCOc1ccc(C2C(C(=O)c3ccc(C)o3)=C(O)C(=O)N2CCCn2ccnc2)cc1 (configuration not stated) | 2.6e-08 | 2.2% | 0% | i | i
N#C/C(=C(/O)COC(=O)CCC1CCCCC1)c1nc2ccccc2[nH]1 | 4.5e-09 | 1.4% | 1% | i | i
COC(=O)c1[nH]c2ccc(F)cc2c1NC(=O)C1=COCCO1 | 2.7e-08 | -0.1% | -4% | i | i
COc1ccc(-c2cc(OC)c3c(C)oc(C)c3c(=O)c2)cc1OC | 7.3e-09 | 6.1% | ? | i | i
O=C(Cn1nnc(-c2ccccc2)n1)NCc1ccccc1 | 1e-09 | 0.9% | 6% | i | i
OC(CCN1CCCC1)(c1ccccc1)C1CCCCC1 (configuration not stated) | 3.9e-08 | 1.8% | nt | i | i
CCOc1ccccc1N1CCN(c2nc(N)c(C#N)c(CC#N)c2C#N)CC1 | 1e-09 | 3.9% | ? | i | i
CC(=O)c1c(C)nc(C)nc1NC(=O)C(C)C | 1e-09 | 0.0% | -9% | i | i
CCOc1ccccc1N1C(=O)CC(Sc2ncccc2C(=O)O)C1=O (configuration not stated) | 3.8e-09 | -3.2% | -4% | i | i
CCOc1ccc(-c2cc(C(=O)O)c3ccccc3n2)c(OCC)c1 | nt | -1.7% | -10% | nt | nt
COc1ccc(S(=O)(=O)NCC(c2cccnc2)N2CCN(c3ccc(F)cc3)CC2)cc1C (configuration not stated) | 1e-09 | -0.5% | 13% | i | i
COc1ccc(S(=O)(=O)Nc2cc(C)ccn2)cc1OC | 3.2e-08 | 2.5% | -2% | i | i
COCCSc1nnc(NC(=O)Cc2ccccc2OC)s1 | 3.8e-08 | -2.5% | -13% | i | i
COC(=O)c1c(NC(=O)CN2CCN(C(=O)c3ccco3)CC2)c2cc(C)ccc2n1C | 8.2e-09 | 0.4% | 4% | i | i
